Screening results: PubChem, Fisher Drug Discovery Resource Center
NPYLR7 agonist – agonists of mosquito NPYLR7 receptor, primary screen, cell-based, Aedes aegypti, calcium fluorescence, mosquito biting behavior; activation, % at 10 µM; HEK293T NPYLR7/Galpha15, GCaMP6s calcium fluorescence; AID 1259423, 2018; 270,000 compounds, 0.15% hits; in the data active = activation above about 40%;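 note: 0% = vehicle and 100% = reference agonist at the receptor; some compounds past the cut are filed as inactive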
NPYLR7 agonist max-min – recorded beside NPYLR7 agonist, whose call it bears; activation, %; measured here: Max-Min RFU normalised activation; some inactives read as strong as hits;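 span of the calcium signal over five minutes; 0% = vehicle and 100% = native peptide agonist; compound fluorescence can raise it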
* = called active by the depositor; & = joins results of further samples. A portion of the library, so the mix of outcomes need not match the whole.

mol	NPYLR7 agonist	NPYLR7 agonist max-min
N#Cc1ccccc1-c1nc2c3c(c(N)ccc3n1)C(=O)c1ccccc1-2	5	5
COc1ccc(S(=O)(=O)N(CCN2CCOCC2)Cc2nccn2Cc2ccccc2F)cc1	17	14
O=C(CN1C(=O)c2ccccc2C1=O)Nc1ccccc1Cl	-3	-7
COc1ccc(CCOC(=O)C2CCCCN2S(=O)(=O)c2ccc3c(c2)CN(C(=O)C(F)(F)F)CC3)cc1OC (stereo not drawn)	-9	-14
COc1ccc(NC(=O)c2cc(OCCCN(C)C)nn2Cc2ccccc2)cc1	-13	-14
c1ccc(CCc2n[nH]c(CSc3ccccc3)n2)cc1	14	5
COc1ccccc1Cc1nc2c(c(N3CCOCC3)n1)CN(C(=O)c1ccccc1Cl)CC2	4	2
Cc1cccc(S(=O)(=O)NC2CCC(NC(=O)C3CCNCC3)CC2)c1 (stereo not drawn)	-2	6
CCOc1c(C)cnc2c1c(=O)n(CC(=O)N1CCOCC1)c(=O)n2C	1	-2
CC#CC(=O)N1CCc2c([nH]c3ccccc23)C1c1c(F)cccc1Cl (stereo not drawn)	16	6
Cc1ccc2cc(C(=O)N(C)C3CCN(C)CC3C)c(C)nc2c1 (stereo not drawn)	2	2
CSc1ccccc1NC(=O)Cn1cnc([N+](=O)[O-])n1	-9	-15
C=C(C)Cn1c(N2CCN(Cc3ccccc3F)CC2)nc2c1c(=O)[nH]c(=O)n2C	-7	-10
CCC(C(=O)N1CCN(c2nccc(-c3cccc(C(F)(F)F)c3)n2)CC1)c1ccccc1 (stereo not drawn)	3	1
CCC(=O)Nc1cccc(NS(=O)(=O)c2cc(C(=O)NC)n(C)c2)c1	4	1
Cc1[nH]n(-c2nc(-c3ccc(Cl)cc3)cs2)c(=O)c1N=Nc1ccc(Oc2ccccc2)cc1	-8	-12
C(#Cc1cncnc1)c1ccc(CN2CCCC(N3CCc4ccccc4C3)C2)cc1 (stereo not drawn)	5	0
CCc1ccc(NC(=O)c2nnn(CC(=O)Nc3ccccc3C)c2N)cc1	-8	-14
O=C(c1cccc2ccnn12)N1CCC2(CC1)Nc1ccccc1NC2=O	1	-1
O=C(COc1ncnc2sc3c(c12)CCC3)NCC(F)(F)F	6	5
CCCn1ncc(C(=O)N2CCCC(Cc3ccc(C(=O)O)cc3)C2)c1C (stereo not drawn)	2	1
CCOc1cc(S(=O)(=O)Nc2ccccn2)ccc1Cl	1	0
O=C1Nc2ccc(CN3C(=O)[C@H]4C[C@H]4C3=O)c3cccc1c23	-9	-11
CC(C)Oc1nc(-c2ccccc2F)n(-c2cccc(NC(=O)c3ccc([N+](=O)[O-])cc3)c2)n1	-22	-21
COCCn1c(C)cc(C(=O)COC(=O)C23CC4CC(CC(Br)(C4)C2)C3)c1C	6	4
COc1cc(Cl)ccc1NC(=O)CC(C)NC1CCCC1 (stereo not drawn)	4	3
CC(C)CN1CCC(CNC(=O)c2ccc(-c3ccsc3)nc2)C1 (stereo not drawn)	23	7
CCc1nc2n(n1)C(=O)C(C(c1ccc(OC)cc1)N1CCN(Cc3ccccc3)CC1)S2 (stereo not drawn)	-8	-12
Cc1ccc(C(=O)c2c(N)c(C(=O)Nc3ccccc3C(F)(F)F)c3ccccn23)cc1	-4	-11
O=C(Cc1ccc(N2CCNC2=O)cc1)N1CCC2(CCOCC2)CC1	7	6
CCOC(=O)CCC(=O)Nc1ccc(N2CCC(C)CC2)c(C(=O)NCCc2ccccc2)c1	-10	-2
COCc1c(Br)c(C)nc(OCC(=O)N/N=C\c2ccc(Br)cc2)c1C#N	8	13
COc1ccc(-c2cnc3ncnn3c2N2CCCN(S(=O)(=O)Cc3ccccc3)CC2)cc1OC	17	14
O=C(NC(C(=O)N1CCCCC1)C1CCN(C(=O)C2CC2)CC1)c1ccccc1Cl (stereo not drawn)	-4	2
O=S(=O)(Nc1cccc(Br)c1)c1ccc(Cl)s1	0	0
O=C(NCC(O)c1ccc(O)cc1)c1ccc2nc(-c3ccccc3)[nH]c2c1 (stereo not drawn)	-3	-6

Brought forward from above: 6 compounds, followed by the next part.
mol	NPYLR7 agonist	NPYLR7 agonist max-min
CCOC(=O)CCC(=O)Nc1ccc(N2CCC(C)CC2)c(C(=O)NCCc2ccccc2)c1	-10	-2
COCc1c(Br)c(C)nc(OCC(=O)N/N=C\c2ccc(Br)cc2)c1C#N	8	13
COc1ccc(-c2cnc3ncnn3c2N2CCCN(S(=O)(=O)Cc3ccccc3)CC2)cc1OC	17	14
O=C(NC(C(=O)N1CCCCC1)C1CCN(C(=O)C2CC2)CC1)c1ccccc1Cl (stereo not drawn)	-4	2
O=S(=O)(Nc1cccc(Br)c1)c1ccc(Cl)s1	0	0
O=C(NCC(O)c1ccc(O)cc1)c1ccc2nc(-c3ccccc3)[nH]c2c1 (stereo not drawn)	-3	-6
Cc1cccc2c(CCNS(=O)(=O)C3CCOC3)c[nH]c12 (stereo not drawn)	12	9
COCCCN(CC(=O)N(CCc1c[nH]c2ccccc12)Cc1ccc(OC)c(OC)c1)C(=O)c1cccc(OC)c1	-1	-2
CCOCCCN(CC(=O)N1CCc2sccc2C1c1ccc(Cl)cc1Cl)S(=O)(=O)c1cccc2cccnc12 (stereo not drawn)	-6	-8
CCOc1ccc(-n2ccn3c(C)nnc3c2=O)cc1	2	-6
CCC(=O)NCC(=O)Nc1ccc2nc(-c3ccc(F)cc3)oc2c1	10	9
CN(C(=O)CN1CCN(c2cc(-c3ccsc3)ncn2)CC1)c1ccccc1	8	4
O=C(O)CSCC(=O)N1CC[C@H]2NC(=O)N(c3ccc(F)cc3)C(=O)[C@H]21	-9	-13
O=C(Nc1cccc(-c2cscn2)c1)C1CCN(C2CCCCCC2)CC1	7	5
CC(C)C(=O)N(Cc1nccn1Cc1ccc(Cl)cc1Cl)CC1CCCO1 (stereo not drawn)	5	14
O=C(CNc1ccccc1OC(F)F)N1CCc2ccccc21	-2	-3
Cc1ccc(S(=O)(=O)N2CCN(CC(=O)NC3CCCC3)CC2)cc1	-4	-8
Cc1cc(OCC(=O)Nc2nccs2)no1	3	4
Cc1ccc(-n2c(N)cc(=O)nc2SCC(=O)N2CCN(c3ccccc3)CC2)cc1C	-1	0
CN(CC1CCCO1)c1nccc(C2CCCC2)n1 (stereo not drawn)	-6	-8
CCCCS(=O)(=O)NCCNc1cc(-n2cccn2)ncn1	-8	-14
Cc1nn(C(C)(C)C)c(OC(=O)c2cc(Cl)ccc2[N+](=O)[O-])c1S(=O)(=O)c1ccccc1	1	33
O=C(Nc1cccc(Cl)c1)Nc1ccc2nc(Cc3ccccc3)nn2c1	6	-3
COc1cccc(F)c1C(=O)Nc1c(C)cnn1Cc1ccccc1Cl	-5	-10
CC(=O)c1c(C)cc(C)c(CN2C[C@@H](N)C[C@H]2C(=O)NC(C)C)c1C	4	3
CC(Sc1nnnn1-c1cccc(F)c1)C(=O)NNC(=O)c1ccc(F)cc1 (stereo not drawn)	5	0
Cc1c(C)n2c3c(=O)n(CC(N)=O)c(=O)n(C)c3nc2n1-c1ccc(Br)cc1	4	-3
CCCCOC(=O)N1CC(=O)N(Cc2ccc(C)cc2)CC(O)C1 (stereo not drawn)	-1	11
CCOC(=O)N1CCC(NC(=O)c2cnc(C)nc2C)CC1	-2	-4
O=C(c1cnc[nH]1)N(Cc1ccc(Cl)c(Cl)c1)C1CC1	-7	-8
Cc1nc(NCCNC(=O)c2cccs2)cc(-n2ccnc2C)n1	-16	-20
COc1ccccc1C(=O)Nc1ccc2c(c1)CN(C(=O)c1cnsn1)CC2	1&-2	0&-6
CCCN1C(=O)/C(=C2\SC(=S)N(CCOC)C2=O)c2ccccc21	-5	-11
O=S(=O)(NCC1(O)CCCNCC1)c1ccc(Oc2ccccc2)cc1 (stereo not drawn)	6	2
C=Cn1cc[n+](CC(=O)c2ccc(C)cc2)c1	0	-7
CCc1ccc(CNc2nn[nH]n2)cc1	27	24
Cc1nc2c(c(=O)n1C)CCN(C(=O)c1ccccc1NC(C)C)CC2	5	3
CC(C)OCC(=O)N1CCCC(C(=O)c2ccc3c4c(cccc24)CC3)C1 (stereo not drawn)	-4	-6
CCOC(=O)c1cc(C)nc(N2CCc3onc(-c4ccccc4)c3C2)n1	6	3
CC1=CC[C@@H]2CN(c3cncc(C(=O)N4CCCC4)n3)C[C@@H]2C1	7	-1
C#C[C@]1(O)CCC2C3CCc4cc(O)ccc4C3CC[C@@]21C (stereo partly drawn)	-9	-12
O=C(NCCc1ccccc1)N1CCCC(Nc2cccc(F)c2)C1 (stereo not drawn)	2	0

Gathered by group: the entries above with two or more sulfur atoms.
mol	NPYLR7 agonist	NPYLR7 agonist max-min
O=S(=O)(Nc1cccc(Br)c1)c1ccc(Cl)s1	0	0
CCOCCCN(CC(=O)N1CCc2sccc2C1c1ccc(Cl)cc1Cl)S(=O)(=O)c1cccc2cccnc12 (stereo not drawn)	-6	-8
CCCN1C(=O)/C(=C2\SC(=S)N(CCOC)C2=O)c2ccccc21	-5	-11

More records:
mol	NPYLR7 agonist	NPYLR7 agonist max-min
NC(=O)c1ccc(CN2CCCc3cc(F)cc(F)c32)cc1	1	-2
O=C(NCCn1ncc2c(N3CCCCC3)ncnc21)c1ccccc1	2	0
CC(Nc1nc(CCN)nc2ccccc12)c1ccccc1C(F)(F)F (stereo not drawn)	20	16
CCN1CCCCC1C(=O)OC(C)C(=O)NC1(C#N)CCCCC1 (stereo not drawn)	2	2
COc1cccc(Nc2nccc3c2cc(-c2cnn(C)c2)n3C)c1	12	-1
CC(C)N(Cc1ccccc1)C(=O)NCCCOCC1CCCO1 (stereo not drawn)	11	7
COc1ccc(CN(CC2CCCO2)CC(C)(C)O)cc1OC (stereo not drawn)	-1	4
O=C(Nc1nnc(-c2cccs2)s1)c1ccc(F)cc1	-4	-5
Cc1[nH]c2ccccc2c1C(=O)OCC1CCCN1C(N)=O (stereo not drawn)	7	2
Cc1ccccc1Cn1c(=O)c2c(nc3n(C(C)c4ccccc4)c(C)cn23)n(C)c1=O (stereo not drawn)	1	3
C[C@@H]1[C@H]2C[C@@H](C[C@H]1NC(=O)Nc1cccc(F)c1)C2(C)C	-7	-15
c1ccc(OCCn2ccnc2-c2ccncc2)cc1	7	-2
COc1ccc(CNC(=O)Nc2sc(C)nc2CC(C)C)cc1	6	2
COC(=O)c1ccccc1N1C(=O)/C(=C\c2ccc[nH]2)N(C)C1=S	24	29
CCCC(=O)N1CCC1(C)C(=O)NS(=O)(=O)Cc1ccccc1C(F)(F)F (stereo not drawn)	1	0
O=C(CSc1ccc(C(F)(F)F)cn1)NC(c1ccc(F)cc1)c1ccc(SCc2ccccc2)cc1 (stereo not drawn)	3	-2
Cc1cc(C)nc(NN=C2CCCCC2C)n1 (stereo not drawn)	8	7
CCOC(=O)N1CCN(Cc2ccc3c(c2)CN(C(=O)c2scc4c2OCCO4)CCO3)CC1	10	-3
Cc1ccc(-c2cc(C(F)(F)F)n3ncc(C(=O)NC4CCCCC4)c3n2)cc1	-2	-3
CC1(C)ON=C(c2ccco2)N(Cc2ccccc2F)C1=O	11	3
CC(C)Oc1ccc(C(O)=C2C(=O)C(=O)N(CCN3CCNCC3)C2c2ccc([N+](=O)[O-])cc2)cc1 (stereo not drawn)	0	-1
CC(C)Oc1ncc(C(=O)N2CCc3ccc(O)cc3C2)cc1Cl	3&-25	-8&-26
C=CCN1CC(C(=O)N2CCC(c3cc(C(C)C)n[nH]3)CC2)CC1=O (stereo not drawn)	9	6
O=C(C1CCC1)N(Cc1nccn1Cc1ccc(F)c(F)c1)CC1CC1	4	11
COc1c(O)ccc(/C=N/NC(=O)C2C(=O)NCC2c2ccccc2)c1[N+](=O)[O-] (stereo not drawn)	-1	-5
CCOC(=O)N(CCCC(=O)OC)CP(=O)(OCC)OCC	-8	-16
C=CCOn1c(=O)c(-c2ccc(C)cc2)[n+]([O-])c2ccccc21	0	-2
COc1ccc(C(N)c2ccc(F)cc2)cc1 (stereo not drawn)	-13	-15
COc1ccc(CCN(Cc2cccs2)C(=O)CN(C(=O)C23CC4CC(CC(C4)C2)C3)C2CC2)cc1OC	14	24
COc1ccc(OC)c(C2SCC(=O)N(CC(=O)NCC3CCCO3)c3c2c(-c2ccccc2)nn3-c2ccc(F)cc2)c1 (stereo not drawn)	3	7
COc1cc(N2CC(CNS(C)(=O)=O)OC2=O)cc(OC)c1OC (stereo not drawn)	25	21
CC(=O)N1CCc2c(nc(-c3ccccn3)nc2N2CC=CC2)C1	1	9
Fc1ccc(-n2nnc3c(N4CCNCC4)ncnc32)cc1	-2	-5
COc1cc2c(cc1OC)CN(c1cc(C(=O)N3CCCC3C)c3ccccc3n1)CC2 (stereo not drawn)	5	5
O=C(COc1coc(CN2CCc3ccccc32)cc1=O)N1CCCC1	3	3
OCC1(Cc2ccccc2F)CCCN(Cc2cnn(-c3ccccc3)c2)C1 (stereo not drawn)	3	-1
